HNF4A DNA FP – change in binding of human HNF4 alpha to DNA; P41235; HNF4a-FITC DNA binding, fluorescence polarization, 1 h; activity change, % at 10 µM; actives 0.3% (n = 360,000); AID 1224865; in the data active = activity change above about 30%, passing the limit was not always enough;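 also: controls were the assay level and a saturating level of protein; the project sought stronger binding though the title names inhibitors; some compounds called inactive have numbers as strong as hits; positive values seem to mean higher polarization but the record does not say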
Target sequence (P41235 whole entry, looked up): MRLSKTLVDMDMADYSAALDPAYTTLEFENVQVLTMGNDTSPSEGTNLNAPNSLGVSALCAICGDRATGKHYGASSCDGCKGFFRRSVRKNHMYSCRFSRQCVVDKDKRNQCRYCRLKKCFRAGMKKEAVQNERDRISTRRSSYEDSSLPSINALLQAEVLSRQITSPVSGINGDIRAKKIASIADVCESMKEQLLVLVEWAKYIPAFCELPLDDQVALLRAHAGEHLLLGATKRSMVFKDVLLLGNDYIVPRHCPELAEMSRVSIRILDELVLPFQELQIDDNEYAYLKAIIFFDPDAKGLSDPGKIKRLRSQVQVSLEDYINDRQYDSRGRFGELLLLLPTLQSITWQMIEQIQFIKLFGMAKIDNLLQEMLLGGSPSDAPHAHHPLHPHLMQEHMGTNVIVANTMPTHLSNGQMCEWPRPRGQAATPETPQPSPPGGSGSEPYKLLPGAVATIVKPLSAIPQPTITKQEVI
Vif A3G – inhibitors of Vif binding to APOBEC3G peptide, primary screen, biochemical, TR-FRET, GST-Vif 1-94, biotin-A3G peptide, dose response retest (AID 1117319); TR-FRET GST-Vif / biotin-A3G peptide binding; higher % means a stronger effect; test concentration not given here; strong numbers were not always called active; one-dose inhibition, %; IC50 in µM for titrated hits; actives 0.57% (n = 260,000);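 active = above the screen mean plus three standard deviations and confirmed in dose response; inconclusive = results disagree or hit not tested in dose response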;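 also: Vif residues 1-94 fused to GST binding biotinylated APOBEC3G peptide 110-148; 0% = full assay without inhibitor and 100% = GST in place of GST-Vif; retest series ran down from 100 µM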
Calb FLC – affects C. albicans growth with fluconazole. AID 1979. growth inhibition, % (test concentration not listed). C. albicans CaCi-2 (fluconazole-resistant clinical isolate) + fluconazole, Alamar Blue growth, 48 h. actives 0.57% (n = 300,000);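 active = most replicates above 75%; inconclusive = exactly half above 75%; inactive = most below 75%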;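 also: all wells also contain fluconazole at 8 µg/ml as a sub-toxic cotreatment; 0% = median of DMSO wells and 100% = median of geldanamycin control wells; wells of about 8 µL received 7.5 nL stock; the first replicate is given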
RanGTP-Imp inh – disruptors of Ran-importin-beta complex formation – biochemical, FRET, CFP-Ran, YFP-importin-beta, homogeneous, primary screen. cell-free CFP-Ran/YFP-importin-beta FRET ratio. inhibition, % (no concentration beside the values). actives 1.1% (n = 300,000). AID 2216;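 active = most replicates above 15%; inconclusive = exactly half above 15%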;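 also: 0% = DMSO wells and 100% = Ran loaded with GDP instead of GTP; wells of about 40 µL received 100 nL stock; the first replicate is given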
ALR inh – blocks human ALR sulfhydryl oxidase activity; inhibition, % (concentration not given with the values); actives 3.8% (n = 290,000); purified ALR, DTT oxidation, H2O2 HRP-luminol luminescence; P55789;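 active = mean and each replicate at 75% or more; inconclusive = only one of the two met; inactive = neither met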;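 also: stock transfer was 7.5 nL into about 7.5 µL; 0% = neutral wells and 100% = wells with inactivated enzyme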
Target sequence (P55789 whole entry, looked up): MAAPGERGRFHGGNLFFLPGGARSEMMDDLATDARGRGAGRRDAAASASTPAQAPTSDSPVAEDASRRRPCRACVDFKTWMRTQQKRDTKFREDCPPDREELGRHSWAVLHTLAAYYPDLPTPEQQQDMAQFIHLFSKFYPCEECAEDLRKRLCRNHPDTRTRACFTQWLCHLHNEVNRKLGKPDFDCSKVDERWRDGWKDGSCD
LANA-H2A inh – blocks KSHV LANA binding to histone H2A/H2B | cell-free LANA-H2A/H2B peptide, fluorescence polarization | actives 0.6% (n = 320,000) | AID 2629 | Q9QR71 | inhibition, % (no concentration beside the values); in the data active = inhibition mostly above about 10%, no sharp cut-off; inactive = mostly below about 6.7%;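 also: stock transfer was 7.5 nL into about 10 µL; 0% = median of vehicle wells and 100% = median of positive control wells; one replicate is shown; the record names a cut of 25% in any replicate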
B2AR ag – human beta-2 adrenergic receptor agonism by FAP; P07550; Am2.2-beta2AR cells, FAP receptor internalization, flow cytometry; reference of the scale not given here; response, % (concentration not given with the values); actives 0.43% (n = 340,000);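 active = response above a set limit, near 3 SD of response in nonfluorescent compounds, cut at about 42% in these data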;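 also: stock transfer was 100 nL into about 11 µL; a reference agonist was the positive control; negative values mostly stem from fluorescent compounds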
* marks the source's active call; other numbers are inactive results; ? = inconclusive; · = not tested or not shown. No enrichment for hits; 6.3% or so of the library scored in one or more.

SMILES	HNF4A DNA FP	Vif A3G	Calb FLC	RanGTP-Imp inh	ALR inh	LANA-H2A inh	B2AR ag
Cc1ccc(NC(=O)N(Cc2nc3ccccc3c(=O)[nH]2)Cc2cccs2)cc1	-3.8	·	16	1.7	1	4.6	6
Cc1ccc(CN2CCN(C(=O)C3CCC3)CC2)cc1	1.8	9%	1	4.1	-23	2.2	-2
COc1ccccc1N(C)S(=O)(=O)c1ccc(C(=O)NC2CCCCCC2)cc1	0.3	·	0	5.0	-4	0.1	2
O=C(CCC(=O)Nc1cccnc1)Nc1cccnc1	-0.3	·	2	4.3	-6	-2.3	0
Cc1cc(C)cc(N(CCC(=O)Nc2nnc(C3CC3)s2)S(=O)(=O)c2ccc(Cl)cc2)c1	-3.2	·	18	-1.0	-23	1.6	1
COc1ccc(/C=N/NC(=O)Cc2csc(Nc3cccc(C(F)(F)F)c3)n2)c(OC)c1	-2.1	-3%	2	0.1	-12	4.1	-10
Cn1cnc2c1c(=O)n(Cc1cccc(F)c1)c(=O)n2C	0.4	·	5	-1.5	0	-1.3	-6
CC(C)c1ccc(NC(=O)NCc2ccccn2)cc1	-1.6	·	1	-2.4	-3	0.1	4
Cc1cccc(NC(=O)C2(c3cccs3)CCOCC2)c1	-1.7	·	32	5.0	-1	-0.9	0
C=CC(COCc1ccccc1)N([C@@H](Cc1ccccc1)C(=O)OC)S(=O)(=O)c1ccccc1Br (stereo not given in full)	6.3	·	·	·	2	2.4	6
COc1cccc(/C=N/Nc2nc3ccccc3[nH]2)c1O	-0.4	-6%	67	9.6	·	2.9	18
O=C(Cc1c[nH]c2ccccc12)Nc1nccs1	-0.1	6%	-4	-3.1	-15	-1.3	6
COc1ccc(OC)c(-n2nnnc2SCC(=O)NCCc2ccccc2)c1	-3.6	-1%	0	1.8	-5	3.4	12
COc1cccc(-c2n[nH]c3c2CCC3)c1	2.0	2%	9	-0.3	-2	2.4	-6
COc1ccc(C(CNC(=O)c2cccc(S(=O)(=O)Nc3ccc(F)cc3)c2)N(C)C)cc1 (stereo not given)	3.7	-6%	·	·	·	·	4
Cc1cc(OCC(=O)OC(C)C(=O)Nc2ccc(N3CCOCC3)cc2)ccc1Cl (stereo not given)	-4.3	-12%	·	·	71	6.2	3
N#CCN1CCN(CC(=O)c2ccc(Br)cc2)CC1	4.0	·	3	2.6	6	2.3	0
COc1ccc(CNC(=O)COC(=O)[C@@H]2CCCN2C(=O)c2cccs2)cc1	-2.3	-6%	·	·	11	6.0	5
Cc1cc(C)n2nc(C(=O)N(C)C(c3ccccc3)c3ccccc3)nc2n1	-0.1	·	4	3.7	-2	-3.0	-12
Cc1cccc(OCc2nc(C#N)c(NCc3ccc4c(c3)OCO4)o2)c1	-1.8	2%	5	-1.8	2	2.2	1
COC(=O)c1cc(NS(=O)(=O)c2ccc(OC)c(OC)c2)ccc1Cl	0.4	-1%	22	1.2	·	1.6	11
Cc1ccnc(NS(=O)(=O)c2ccc(NC(=O)c3ccc([N+](=O)[O-])s3)cc2)n1	-1.2	-7%	9	?	-67	-1.1	1
CCOC(=O)c1nnc2ccnn2c1N	4.0	?	3	-3.9	7	8.6	0
NC(=O)C1CCN(C(=O)CSc2nc3ccccc3[nH]2)CC1	1.5	-5%	1	-2.4	-3	1.1	-1
Cc1cc(C)c(S(=O)(=O)NCc2ccc3c(c2)OCO3)c(C)c1	4.9	·	49	-3.5	-5	-1.6	-1
CCN1C(=O)c2ccccc2Sc2ccc(C(=O)NCCCN3CCCCC3)cc21	-1.4	·	-6	-0.1	-3	4.2	14
COc1ccc(OC)c(CNC(=O)C2CCC(=O)N(CCCN3CCCC3=O)C2)c1 (stereo not given)	-3.1	5%	6	4.2	-13	-3.6	12
Cc1ccc(CSc2nnc(SCC(=O)N/N=C/c3ccc(C(=O)O)cc3)s2)cc1	2.8	-3%	-5	-4.3	·	-1.9	-3
O=C(CCNC(=O)c1ccc(Br)cc1)Nc1cccc(S(=O)(=O)N2CCCC2)c1	2.2	-5%	-13	0.3	-2	-1.7	0
CN1/C(=C/c2cccc[n+]2C)Sc2ccccc21	-4.2	·	43	5.9	32	-55	-97
Cn1cc(Cl)c(-c2n[nH]c(=S)n2C2CCCCC2)n1	16	5%	-3	0.1	7	2.2	-2
COc1ccc(-c2nc3ccccc3nc2-c2ccccc2)cc1OC	-1.8	8%	7	2.1	5	-4.8	4
Oc1ccc(Cc2ccccc2Cl)c(O)c1	0.2	2%	·	·	·	·	7
COC(=O)c1c(NC(=O)COc2ccc(Cl)cc2Cl)sc2c1CC(C)(C)NC2(C)C	4.7	·	0	0.9	3	5.0	1
COc1cc(C(=O)OCC(=O)Nc2cc(S(=O)(=O)N3CCOCC3)ccc2C)ccc1OCC(C)C	-0.8	1%	2	4.8	3	-2.9	-2
O=C(NCc1ccc2c(c1)OCO2)Nc1ccc2ccccc2c1	6.3	0%	-16	-2.5	-9	-0.4	2
COc1ccccc1NC(=O)C1CC(=O)N(c2ccc(F)cc2)C1 (stereo not given)	0.2	-1%	-2	-0.1	-7	4.2	8
CCN1CCCC1CN(Cc1cc2cc(C)ccc2[nH]c1=O)C(=O)Nc1ccccc1OC (stereo not given)	4.0	6%	-20	3.3	-27	-27	0
CCCc1cc(=O)[nH]c(SCC(=O)N(Cc2ccccc2)C(C)C)n1	-1.7	7%	7	1.5	0	2.1	11
COc1ccccc1CN(C)C(=O)c1sccc1-c1ccccc1	2.5	9%	1	-3.3	1	-11	-3
COc1cc(NC(c2ccccc2)c2ccccc2)cc(OC)c1OC	0.1	·	1	6.2	·	3.3	7
CCCCc1c(O)nc2sccn2c1=O	2.9	3%	5	-1.9	0	0.4	-8
COc1cccc(-n2cnc3sc(-c4ccccc4)cc3c2=O)c1	9.7	·	-13	-1.4	-10	-0.4	-6
COc1ccc(NC(=S)N2CCOCC2)c(OC)c1	0.8	18%	0	6.6	22	2.4	2
Cc1ccc(C(=O)n2nnc3ccccc32)cc1[N+](=O)[O-]	0.4	-4%	-4	-8.1	·	-3.4	3
CCCNC(=O)c1ccc(-c2nn(C)c(=O)c3ccccc23)cc1	3.0	·	-3	6.7	·	4.0	-3
CCC(C)C(=O)OC1CCC=C2C=CC(C)C(CCC3CC(O)CC(=O)O3)C21 (stereo not given)	-0.7	7%	·	·	·	·	-8
CC(=O)c1cccc(NC(=S)NC(=O)c2cccc(Cl)c2)c1	-0.1	-3%	18	0.3	-2	-0.6	-2
Cc1ccc(NC(=O)C2COc3ccccc3O2)cc1 (stereo not given)	-0.9	8%	4	7.2	10	2.6	2
OC(CNCc1ccc(F)cc1)(c1ccccc1)c1ccc(F)cc1 (stereo not given)	4.0	-4%	29	4.6	-9	0.8	-2
O=C(CN1CCCCCCC1)Nc1ccc(Cl)cc1Cl	-3.8	4%	7	3.2	-4	2.3	12
Cc1ccc(CNC(=O)C2CCCN2C(=O)Nc2ccc(F)cc2)cc1 (stereo not given)	2.7	·	8	3.8	-15	2.8	-6
O=[N+]([O-])c1ccc(Sc2nnnn2-c2ccccc2)c(Cl)c1	-1.2	?	-18	-1.1	-9	2.8	-4
Cc1[nH]ncc1-c1ccccc1Cl	2.4	15%	-6	-0.1	-15	-3.9	1
COc1ccc(CCCC(=O)NCC(=O)N/N=C/c2cc(Cl)ccc2OC)cc1	-1.4	0%	0	0.4	·	·	-2
O=C(CSc1nnc(NC(=O)c2ccccc2Cl)s1)NC1CC1	2.0	·	-19	2.0	1	-8.2	4
NC(=O)CSc1nc2cc(Cl)ccc2c(=O)n1C1CCCCC1	-0.4	·	4	-1.7	5	5.9	-8
CCN(CC)S(=O)(=O)c1cccc(C(=O)N[C@H](C(=O)NNC(=O)c2ccccc2)C(C)C)c1	-1.6	·	2	?	2	2.1	-2
Cc1sc2nc(SCc3nc(-c4cccs4)no3)n(-c3ccccc3)c(=O)c2c1C	1.0	1%	9	-1.1	-14	2.3	6
O=S(=O)(Cc1ccccc1)C1CCCCC1O (stereo not given)	1.0	·	-2	1.7	-7	3.6	-4

(further entries)
SMILES	HNF4A DNA FP	Vif A3G	Calb FLC	RanGTP-Imp inh	ALR inh	LANA-H2A inh	B2AR ag
Cc1ccc(N=C2SCCCN2C(=O)c2ccco2)cc1Cl	-1.2	2%	-13	0.5	-13	-6.1	-2
CCOC(=O)c1ccccc1NC(=O)c1c(N)n(C)c(=O)[nH]c1=O	·	·	-5	-1.2	23	2.7	·
CCn1c(=O)c2c(nc(SCC(=O)Nc3ccccc3)n2C)n(C)c1=O	-1.5	·	8	1.6	-5	5.2	-10
O=C(O)C1CC=CCC1C(=O)Nc1cccc(Cl)c1 (stereo not given)	-1.2	1%	-8	?	-15	-0.4	6
COc1cccc(-c2ccc(NC(=O)C3CCCN(Cc4cnc(C)n4C)C3)cc2)c1 (stereo not given)	-2.0	·	4	?	-12	-1.1	19
COc1ccc(-c2nn(-c3ccccc3)cc2C(=O)NC(=S)N2CCOCC2)cc1OC	3.6	11%	·	·	-6	5.5	3
Cc1nc2ccccc2n1CC(=O)NC(C)C1CC2CCC1C2 (stereo not given)	1.7	·	-7	?	-6	-87	-15
CN(CC(=O)Nc1ccc(Cl)c(C(F)(F)F)c1)C(=O)CC1Sc2ccccc2NC1=O (stereo not given)	0.0	4%	7	-0.6	2	2.7	-1
c1ccc(Cc2nnc3sc(-c4cccnc4)nn23)cc1	-2.0	0%	6	2.3	-2	-0.9	-10
Cc1ccn(CC(=O)N2CCCC(N3CCN(c4ccccc4F)CC3)C2)n1 (stereo not given)	2.5	·	12	3.1	·	·	1
CC(C)Nc1ncnc2c1nnn2Cc1ccccc1	-1.2	0%	-4	0.2	-2	1.7	0
COCCNC(=O)COc1cccc(Oc2ccccc2)c1	-2.1	1%	2	0.8	-2	-6.8	-6
NC(=O)Cc1ccc(Nc2nnc(-c3ccccc3)c3ccccc23)cc1	-1.1	-5%	35	-4.2	6	0.5	0
CCOC(=O)CC1=NN(c2ccccc2)C(=O)C1	2.0	·	-10	-30	-44	-2.3	4
CN(C)S(=O)(=O)c1ccc(C(=O)NCCc2ccco2)cc1	0.2	8%	-5	1.0	3	1.9	8
COc1cccc(NC(=O)CN2C(=O)CSc3ccc(S(=O)(=O)N4CCCCC4)cc32)c1	-1.6	0%	-2	-0.9	-3	-2.4	6
O=C1CCN(S(=O)(=O)c2cc(C(F)(F)F)ccc2Cl)CC1	1.0	-10%	·	·	-4	-2.8	-1
O=C(NN=Cc1ccccc1C(=O)O)C(=O)NN=Cc1ccccc1C(=O)O	-0.9	16%	·	·	·	·	0
O=C(NCCCN1CCOCC1)C(=O)NCc1ccccc1Cl	-1.3	-2%	-6	-3.5	-1	-5.7	2
O=S(=O)(Cc1ccccc1)NCc1cccnc1	-1.9	1%	7	?	-6	1.3	-5
Cc1ccc(-c2cc(C(=O)NCCCN3CCCC3)c3ccccc3n2)cc1C	7.0	·	-6	-3.5	-3	-0.9	7
CC(=O)Nc1sc2c(c1C(c1ccc(Cl)cc1)N1CCOCC1)CCCC2 (stereo not given)	-0.6	13%	-13	2.2	-4	-4.1	8
O=C(O)CCCNC(=O)c1cncc(O)c1	0.7	27%	-18	?	-3	-2.1	8
